Bioassay records (PubChem BioAssay)
Bead autofluor: flagged as autofluorescent in microsphere protease counterscreen | compound autofluorescence counterscreen, microsphere flow cytometry; active compounds read high | fluorescence intensity (concentration not given with the values) | actives 3.1% (n = 360,000);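 active means at least 3 SD above the mean of all compounds, about 16000 in these data; inconclusive means too few beads counted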;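 further: 100 nL of 1 mM stock went into each well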
PrP 5UTR inh: inhibition of PrP 5' UTR reporter expression. cell-based PrP 5' UTR mRNA reporter, plate reader. inhibition, % (test concentration not listed). actives 0.35% (n = 340,000). AID 488862;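 active means every replicate at 50% or more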;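 further: 0 = median of the neutral control wells; tested in H4 reporter cells; numbers are from one replicate; inactives centre near -14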
ugtP null kill: growth inhibition of S. aureus ugtP deletion strain. S. aureus RN4220 ugtP deletion, OD600 growth, 16 h; some inactives read as strong as hits. growth inhibition, % (no concentration beside the values). actives 0.54% (n = 330,000);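 active means z-score under -3 and OD600 up to 0.15 on both plates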;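 further: plate controls were untreated wells for no effect and antibiotic for full effect; wells of about 80 µL received 100 nL stock; the first replicate is given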
Sa RN4220 lethal: S. aureus RN4220 growth inhibition. actives 0.33% (n = 330,000). OD600, 16 h. inhibition, % (test concentration not listed). AID 1259311;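 active means z-score of -3 or lower and OD600 up to 0.18 on both plates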;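 further: plate controls were untreated cells for no effect and reference antibiotic for full effect; stock transfer was 100 nL into about 80 µL; one replicate is shown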
BJeLR viability: BJeLR cell viability loss; BJeLR (HRASV12) viability, CellTiter-Glo ATP luminescence, 48 h; reference of the scale not given here; inhibition, % (concentration not given with the values); actives 0.17% (n = 300,000); AID 1554;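 active means replicate mean above 50%; inconclusive means above 50% but judged a plate artefact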;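 further: 50 nL library stock added to about 25 µL; numbers are from one replicate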
Mtb hypoxia inh: inhibitors of hypoxia-regulated fluorescent reporter in Mycobacterium tuberculosis | M. tuberculosis hypoxia-regulated fluorescent reporter, fluorescence | actives 0.1% (n = 300,000) | fluorescence inhibition, % (test concentration not listed);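 active means 35 to 45% if threefold the growth effect, above 45% if 1.5-fold the growth effect; inactive means the rest, general growth blockers included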;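 further: wells of about 50 µL received 100 nL stock; 0% = vehicle wells and 100% = reference inhibitor wells; whole bacteria with a GFP reporter of the hypoxia response; strong numbers were not always called active; many hits fall short of the cut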
Mtb hypoxia inh growth: also measured in Mtb hypoxia inh; calls as there; growth inhibition, %; measured here: M. tuberculosis growth (absorbance);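 0% = vehicle and 100% = reference antibiotic; read after six days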
Active calls of the source: *; ? = inconclusive; · = no result given; & = joins results of further samples.

SMILES	Bead autofluor	PrP 5UTR inh	ugtP null kill	Sa RN4220 lethal	BJeLR viability	Mtb hypoxia inh	Mtb hypoxia inh growth
CCOC(=O)CN1C(=O)N[C@@H](c2ccccc2)[C@H](C(C)=O)[C@H]1C	3926	-14	·	·	8	·	·
Nc1nnn(-c2ccccc2)c1-c1ccccc1	3129	-5	3	2.7	-12	6	-1
CC(=NN=C(N)N)c1ccc(C)c(C)c1	·	·	-5	2.2	·	3	4
O=C(O)CCC(=O)N1CCCC1	2139	-14	10	3.5	0	2	1
Cc1nn(-c2ccc(N3CCCCC3)nn2)c(C)c1CCC(=O)Nc1cccc(F)c1	5541	-76	-1	-5.9	8	2	4
CN(C)C(=O)/C(=C\c1ccc(-c2cccc([N+](=O)[O-])c2)o1)NC(=O)c1ccccc1	4493	13	15	-1.0	-17	5	13
O=C1CCN(C(=O)Nc2ccccc2Cl)N1	5190	-16	-10	7.3	5	1	5
O=C(O)c1ccc2c(c1)C(=O)N(NC(=O)c1ccc(O)cc1)C2=O	2022	-31	5	0.6	-17	-3	5
CN(CCO)c1ncnc2c1sc1nc(N3CCOCC3)c3c(c12)CCC3	·	-26	-4	-3.5	-1	4	14
CCCOC(=O)c1ccc(NC(=O)C(=O)NCCN(CC)CC)cc1	2246	-18	5	1.6	-3	1	16
Cc1ccc(-c2nnc(/C=C/c3ccccc3)o2)cc1	2177	-37	-8	2.6	-6	-3	0
COCCNC(=O)CCC1CCN(Cc2cccc(-c3ccc(C)o3)c2)CC1	4750	-11	12	3.0	-1	16	12
CCOC(=O)c1c(S(=O)(=O)NC2CCN(C(=O)OCC)CC2)c(C)n(C)c1C	4851	-8	15	5.0	8	-13	-7
O=C(CSc1nc2ccccc2c(=O)[nH]1)Nc1ccccc1C(F)(F)F	4536	-20	-6	2.0	5	-4	1
COC(=O)c1sccc1NC(=O)/C=C/c1c(Cl)cccc1Cl	2639	-32	-17	3.7	-5	·	·
COc1ccc(-c2cc3nc4n(c(=O)c3s2)CCCCC4)cc1	6420	-73	1	10	-12	14	12
C=CCN1C(c2ccc(OCC)cc2)=CS/C1=C(\C#N)c1nnc2n1CCCCC2	5759	-16	-1	6.1	13	-2	8
CC[C@@]1(C(=O)OC)N[C@H](CN(C)C(=O)c2ccc(C(C)(C)C)cc2)[C@@H]2C(=O)N(Cc3ccccc3)C(=O)[C@@H]21	4295	-14	-1	0.4	·	-5	-1
CCCN(CCC)CCCNC(=O)c1cn(-c2ccc(OC)cc2)c(=O)c2ccccc12	3797	4	1	-2.4	-4	-11	3
COc1cccc(NC(=O)COC(=O)C2CC3CCCC(C2)C3=O)c1 (stereo unspecified)	8024	-21	9	1.4	·	9	6
CCC(=O)N1CCc2cc(S(=O)(=O)NC(Cc3ccccc3)C(=O)O)ccc21 (stereo unspecified)	4621	2	-1	-5.0	-6	-5	-7
c1ccc(CSc2nnnn2-c2ccc3c(c2)OCCO3)nc1	12583	-30	8	7.1	0	12	13
COc1ccc(CNC(=O)C(c2ccco2)N(C(=O)c2snc(C(N)=O)c2N)c2ccccc2OC)cc1 (stereo unspecified)	3689	-3	14	3.4	-5	0	5
O=C(NCCc1nc2ccccc2[nH]1)c1ccc(Br)o1	5575	-17	-2	5.8	4	-2	0
O=C(Cn1ccc2ccccc2c1=O)N1CCN(c2cccc(Cl)c2)CC1	4324	-14	-4	0.9	1	·	·
Cc1ccnc2nc(C(=O)Nc3nnc(-c4ccc(Cl)cc4)o3)nn12	4572	-10	7	-0.2	7	-18	-1
CC(O)c1cc2c(cc1NC(=O)c1cnn3c1NC(c1ccco1)CC3C(F)(F)F)OCO2 (stereo unspecified)	4827	-32	-8	6.8	4	·	·
O=C(Oc1ccc2c3c(c(=O)oc2c1)CCC3)c1ccccc1[N+](=O)[O-]	·	·	7	5.2	-3	9	4
CCOc1ccc(S(=O)(=O)N(CC(=O)N2CCc3ccccc32)Cc2ccco2)cc1	4052	-14	64	-8.4	-2	7	5
Cc1ccc(S(=O)(=O)N2CCC(=O)N(CCOCc3ccc(F)cc3)CC2)cc1	3800	-13	-15	2.4	6	9	0
Cc1ccc(/C=C2/C(=O)c3ccc(C(=O)O)cc3C2=O)o1	4635	-11	6	2.8	13	12	6
COc1cccc(N2CCN(c3ccc4nnc(CCC(=O)Nc5cccc(C(C)=O)c5)n4n3)CC2)c1	5044	-28	-6	3.6	-1	-8	-6
Cc1ccc(O)c(NC(=S)NC(=O)COc2ccc(Br)cc2)c1	3463	-26	3	3.9	-1	-3	1
COc1ccc(NCc2ccc([N+](=O)[O-])s2)cc1	1980	-4	4	5.1	8	6	4
CCCCN1CC(O)C(O)C(O)C1CO (stereo unspecified)	·	·	2	8.2	·	-5	-5
O=C(CN1C(=O)NC2(CCCC2)C1=O)OCCOc1ccc(Cl)cc1Cl	6336	-15	-1	3.1	-5	7	8
O=C(Nc1ccccc1N1CCN(C(=O)c2ccccc2)CC1)c1ccc(Br)o1	5458	-9	-16	4.0	1	-5	16
CC(=O)c1cccc(N2C(=NC(=O)CCc3ccccc3)SC3CS(=O)(=O)CC32)c1 (stereo unspecified)	5726	2	-4	-4.4	3	-8	-14
CCCOc1ccc(C(=O)N2CCN(c3ccc(N)cc3Cl)CC2)cc1	4436	-9	3	0.4	-9	-6	12
CC1CCCCC1NC(=O)CCCn1c(=S)[nH]c2ccccc2c1=O (stereo unspecified)	3115	-8	4	12	-8	-1	7
NS(=O)(=O)c1ccc(N2CCOCC2)c(C(=O)NCc2ccc3c(c2)OCO3)c1	4896	-11	2	1.5	·	7	7
CCCNC(=O)N1CCN(S(=O)(=O)c2ccc(C)c(C)c2)CC1	12261	·	6	-0.2	-2	-7	-6
CC(CC(=O)O)CC(=O)NNC(=O)c1cccc(Br)c1 (stereo unspecified)	2595	-21	5	6.3	6	0	-3
COc1ccc(-c2ccc(N(C)C)cc2)cc1C1C2C=CCC(C)C2C(=O)N1Cc1ccccc1 (stereo unspecified)	·	·	6	-7.3	·	10	10
COc1cc(NC(=S)NCCCO)c(OC)cc1Cl	2157	-21	8	3.7	2	12	6
CCN1C(=O)CSC1=Nc1ccc(OC)cc1	3592	-23	13	7.1	-1	6	13
O=C(CCCCn1c(=O)[nH]c2ccccc2c1=O)NCc1ccc2c(c1)OCO2	3884	-12	5	6.6	2	1	6
Cc1ccc(S(=O)(=O)Nc2nc3ccccc3nc2NCc2ccco2)cc1C	2377	-10	-8	22	-1	-2	7
Cc1c(C(=O)N/N=C/C(C)C)[nH]c2c([N+](=O)[O-])cccc12	2601	-11	·	·	-6	·	·
CN(C)S(=O)(=O)c1ccc(Cl)c(NC(=O)COC(=O)CCC(=O)c2cccs2)c1	5864	5	-2	1.0	-17	9	-5
CCN1C(=O)C2C(c3ccc(-c4ccc(OC)cc4)cc3)N3CCCC[C@@]3(C(=O)OC)C2C1=O (stereo partly specified)	·	·	1&-14	3.2&7.1	·	4&-3	5&4
CCOC(=O)c1cnn(-c2ncnc3c2cnn3C)c1N	6073	-39	-2	3.7	-9	15	7
CCC(C)c1ccc(NC(=O)Nc2cccnc2)cc1 (stereo unspecified)	5767	-86	-13	1.9	-6	-18	2
CC(=O)Nc1ccc(S(=O)(=O)NCC2CCC(C(=O)NCCCN(C)Cc3ccccc3)CC2)cc1 (stereo unspecified)	5322	-27	0	1.3	4	-4	4
CCOC(=O)NN=C(C)c1ccc([N+](=O)[O-])o1	·	·	21	13	·	16	13
COc1ccc(CN2CC(=O)N(c3ccccc3C)C2=S)cc1OC	4245	-18	4	5.8	3	13	14
C/C(=N\NC(=O)C(O)c1ccccc1)c1ccc(Cl)cc1 (stereo unspecified)	2838	-6	·	·	2	·	·
C=CCn1c(SCC(=O)NC(C)(C)C)nnc1-c1ccccc1O	10920	-2	14	6.2	3	7	3
OCc1nc2ccccc2n1C/C=C/c1ccccc1	7003	-22	0	9.6	0	11	1
C=CCOC(=O)C1=CC(c2ccccc2)CC(OCc2ccc(CO)cc2)O1 (stereo unspecified)	·	·	7	9.0	·	15	20

Structures from the list above that have a tert-butyl group:
SMILES	Bead autofluor	PrP 5UTR inh	ugtP null kill	Sa RN4220 lethal	BJeLR viability	Mtb hypoxia inh	Mtb hypoxia inh growth
CC[C@@]1(C(=O)OC)N[C@H](CN(C)C(=O)c2ccc(C(C)(C)C)cc2)[C@@H]2C(=O)N(Cc3ccccc3)C(=O)[C@@H]21	4295	-14	-1	0.4	·	-5	-1
C=CCn1c(SCC(=O)NC(C)(C)C)nnc1-c1ccccc1O	10920	-2	14	6.2	3	7	3

One compound at a time (already shown). Screens in order: Bead autofluor | PrP 5UTR inh | ugtP null kill | Sa RN4220 lethal | BJeLR viability | Mtb hypoxia inh | Mtb hypoxia inh growth
Cc1ccc(/C=C2/C(=O)c3ccc(C(=O)O)cc3C2=O)o1 as listed: 4635 | -11 | 6 | 2.8 | 13 | 12 | 6
Cc1c(C(=O)N/N=C/C(C)C)[nH]c2c([N+](=O)[O-])cccc12 as listed: 2601 | -11 | · | · | -6 | · | ·
Cc1ccc(S(=O)(=O)N2CCC(=O)N(CCOCc3ccc(F)cc3)CC2)cc1 as listed: 3800 | -13 | -15 | 2.4 | 6 | 9 | 0

Fetched by compound from above, two records:
SMILES	Bead autofluor	PrP 5UTR inh	ugtP null kill	Sa RN4220 lethal	BJeLR viability	Mtb hypoxia inh	Mtb hypoxia inh growth
CC(=NN=C(N)N)c1ccc(C)c(C)c1	·	·	-5	2.2	·	3	4
CC(=O)Nc1ccc(S(=O)(=O)NCC2CCC(C(=O)NCCCN(C)Cc3ccccc3)CC2)cc1 (stereo unspecified)	5322	-27	0	1.3	4	-4	4

Following part.
SMILES	Bead autofluor	PrP 5UTR inh	ugtP null kill	Sa RN4220 lethal	BJeLR viability	Mtb hypoxia inh	Mtb hypoxia inh growth
COC(=O)c1[nH]c2cc(OC)ccc2c1NC(=O)c1nonc1C	9114	-38	0	4.4	9	15	13
Cc1cc(C)nc(SCC(=O)N/N=C/C=C/c2ccccc2)n1	2302	-29	·	·	-9	·	·
O=C(Nc1ccc(Cl)cc1)Nc1ccc(C(=O)N2CCOCC2)cc1	3676	-29	4	0.1	-5	-5	-6
Cc1c(NC(=O)C23CC4CC(CC(Br)(C4)C2)C3)c(=O)n(-c2ccccc2)n1C	5416	-17	6	-4.8	11	8	3
Cc1ccccc1N1CCN(C2=NC(=O)C(=Cc3cccs3)S2)CC1	·	·	-1	14	·	-6	10
CCN(CCC#N)c1ccc(N2C(=O)CCCC2=O)cc1[N+](=O)[O-]	3944	-15	9	1.8	-5	0	-1
COc1ccc(CNS(=O)(=O)c2ccc3c(c2)N(C(C)=O)CCO3)cc1	5509	-4	1	0.1	4	-9	1
CC1(C)CC(=O)C(C(C2=C(O)CC(C)(C)CC2=O)c2cccc(O)c2)C(=O)C1 (stereo unspecified)	20599*	-37	-8	-0.9	·	-7	2
COC(=O)c1ccccc1NC(=O)c1ccc2c(c1)OCCO2	4129	-18	-3	12	-1	·	·
Nc1nc2c(F)c(F)c(F)cc2s1	3207	-11	2	2.2	2	9	6
COc1cccc(C2=NN(C(=O)c3ccco3)C(c3ccco3)C2)c1 (stereo unspecified)	6906	-6	-9	2.1	2	-6	-1
CC(=O)N1C(C(=O)O)Cc2c([nH]c3ccccc23)C1(C)C (stereo unspecified)	4162	-16	4	3.3	2	1	-1
Cc1cccc(/C(N)=N/OC(=O)N2CCOCC2)c1	7426	-51	4	2.7	4	21	7
Cc1cc(C)n2nc(C(=O)OCC(=O)Nc3ccc(F)cc3F)nc2n1	?	-9	4	2.2	6	3	-7
CCCNC(=O)c1cn(CC)c2cc(N3CCN(C)CC3)c(F)cc2c1=O	2821	-1	58	25	5	·	·
CC(=O)NCCC(=O)N1CCCC(C(=O)c2ccc3c4c(cccc24)CC3)C1 (stereo unspecified)	4653	-16	-9	4.0	-7	8	3
CN1CCN(C(=O)/C=C/c2c(F)cccc2Cl)CC1	6322	-25	3	2.9	-7	6	-5
COc1ccc(-c2cc(C(=O)Nc3ccc(C(N)=O)cc3)c3ccccc3n2)cc1	4020	-23	-2	-1.4	-4	-19	-6
NC(=O)CSc1ccc(F)cc1	4044	-1	-1	1.3	13	3	15
CCCN(C(=O)COC(=O)C12CCC(=O)N1c1ccccc1S2)c1c(N)n(Cc2ccccc2)c(=O)[nH]c1=O (stereo unspecified)	5058	-19	-1	-0.9	-1	6	6
Cc1ccc(C(=O)NC2=NCCS2)cc1	·	·	5	2.9	5	12	6
CC1(C)CC(=O)C(C=NCCN2CCN(CCc3ccccc3)CC2)=C(O)C1	20820*	-29	5	-0.7	11	1	0
CSc1ncccc1C(=O)Nc1ccc(OC(F)(F)F)cc1	3366	-18	-7	3.2	-4	1	-3

Outcome played no part in choosing rows (roughly 4.1% active in at least one column).
